# Screening results deposited in PubChem by Broad Institute.
# FGF22 binding: FGF22 (human) thermal shift binding. calls only at 9.99 µM. recombinant FGF22 thermal shift, SYPRO orange fluorescence; percent of sucrose octasulfate shift, DMSO zero. 1.5% of 340,000 active;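 active = melting point raised past a set limit in the mean and every replicate; three in four hits are not shown here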
# Target sequence (Q9HCT0 whole entry, looked up): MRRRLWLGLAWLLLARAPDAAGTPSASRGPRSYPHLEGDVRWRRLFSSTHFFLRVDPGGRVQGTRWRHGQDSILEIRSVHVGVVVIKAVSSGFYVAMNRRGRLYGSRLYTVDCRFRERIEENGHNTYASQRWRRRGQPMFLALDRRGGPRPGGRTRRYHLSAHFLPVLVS
# MLL AF4-AF9 inh: MLL-AF4/AF9 protein interaction inhibition. AlphaScreen, biotin-AF4 peptide binding to FLAG-AF9. inhibition, % at 10 µM. 0.47% of 350,000 active. AID 651704;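 active = every replicate reaching a set inhibition limit, whatever the replicate mean, cut at about 25% in these data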;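 note: 0% = plate neutral control median and 100% = total signal loss; the record names both 10 and 1 µM as test concentration; the first replicate is given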
# Target sequence (P42568 whole entry, looked up): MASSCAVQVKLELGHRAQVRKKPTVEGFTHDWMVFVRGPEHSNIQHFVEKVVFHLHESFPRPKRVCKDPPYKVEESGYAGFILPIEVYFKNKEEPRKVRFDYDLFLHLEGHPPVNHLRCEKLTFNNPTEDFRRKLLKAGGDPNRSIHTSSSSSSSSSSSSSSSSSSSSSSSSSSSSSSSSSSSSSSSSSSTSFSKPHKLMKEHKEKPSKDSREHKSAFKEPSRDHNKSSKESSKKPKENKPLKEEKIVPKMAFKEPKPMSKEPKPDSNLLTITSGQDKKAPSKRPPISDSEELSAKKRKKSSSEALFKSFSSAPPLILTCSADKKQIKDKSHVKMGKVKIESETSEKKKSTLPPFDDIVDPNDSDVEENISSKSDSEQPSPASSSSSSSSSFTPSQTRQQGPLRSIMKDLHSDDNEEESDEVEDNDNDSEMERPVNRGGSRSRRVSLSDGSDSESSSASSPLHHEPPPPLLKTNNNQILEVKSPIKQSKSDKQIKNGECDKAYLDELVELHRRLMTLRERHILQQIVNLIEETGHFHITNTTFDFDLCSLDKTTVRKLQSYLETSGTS
# Ecoli rRNA inh: inhibitors of bacterial rRNA selective over humanized ribosomes. E. coli WT GFP vs humanized-ribosome RFP mutants, fluorescence, 24 h; active compounds read low; DMSO median 0, no signal -100. GFP signal change (wild-type ribosome), % (concentration not given with the values). 1.6% of 350,000 active. AID 720706;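 active = significant combined selectivity score with lowered wild-type GFP, culture density cut under 30%, mutant RFP and density less affected; inactive = any of these conditions unmet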; note: one replicate is shown; some compounds called inactive have numbers as strong as hits
# Ecoli rRNA inh OD600: further read-out of Ecoli rRNA inh, marked with its call; OD600 change, %; measured here: OD600 growth;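 optical density of the mix in the first replicate; 0 = DMSO median and -100 = no signal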
# Ecoli rRNA inh RFP: recorded beside Ecoli rRNA inh, whose call it bears; RFP signal change, %; measured here: RFP humanized mutant strains;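 first replicate; 0 = DMSO median and -100 = no signal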
# Starred values were filed as active, the others as inactive; i = inactive; . = not tested or not shown. Some of the compounds tested; count on the stated rates, not on these rows.
# Results follow in this order: FGF22 binding	MLL AF4-AF9 inh	Ecoli rRNA inh	Ecoli rRNA inh OD600	Ecoli rRNA inh RFP
COc1ccc2c3c(n(C)c2c1)[C@@H](CO)N(C)CC31CCN(S(=O)(=O)c2cccs2)CC1
→ i	-1.3	-5.0	-33.2	7.3
O=C(C[C@@H]1CC[C@@H]2[C@H](COC[C@@H](O)CN2C(=O)c2cccnc2)O1)NCc1ccc(-c2ccccc2)cc1
→ i	-0.7	-4.4	-6.7	15.8
CCCNC(=O)C1(C)CCCN(C(=O)c2cc3ccccc3s2)C1 (stereo not given)
→ i	-1.1	0.2	6.6	-2.8
CCCNC(=O)[C@H]1[C@H](CO)[C@H]2Cn3c(ccc(-c4ccccc4OC)c3=O)[C@@H]1N2C(=O)NCCC
→ i	-0.2	2.4	-1.3	-2.3
COc1ccc(C(C)=O)cc1CN1C(=O)C(C)ON=C1c1cccc(C(F)(F)F)c1 (stereo not given)
→ i	-6.4	8.7	0.2	0.6
C[C@@H]1CN([C@H](C)CO)C(=O)Cc2cc(NS(=O)(=O)c3ccc(Cl)cc3)ccc2O[C@@H]1CN(C)C(=O)Nc1ccc(C(F)(F)F)cc1
→ i	-4.2	-2.1	-4.7	2.9
CN1C[C@@H]2[C@H](c3ccccc31)[C@H](CO)N2C(=O)Nc1ccccc1Cl
→ i	-1.5	0.5	-3.9	-7.1
CN(C)c1ccc(CNC(=O)C2(C)Cc3c(-c4cccc(C(N)=O)c4)ccnc3O2)cc1 (stereo not given)
→ i	-3.2	-1.3	0.9	0.7
CCCC#Cc1cnc2c(c1)C(=O)N([C@@H](C)CO)C[C@@H](C)[C@H](CN(C)Cc1ccc(F)cc1)O2
→ i	5.6	1.5	-5.4	3.2
CO[C@H]1CN(C)C(=O)c2cc(NS(C)(=O)=O)ccc2OC[C@@H](C)N(C(=O)C2CCC2)C[C@H]1C
→ i	-2.6	2.6	4.4	-0.5
C(CCc1nn[nH]n1)CCC1CCCCC1
→ i	0.4	-17.8	-17.9	-2.6
N/C(Cc1cccc2ccccc12)=N\OC(=O)c1ccc(Br)o1
→ i	-4.8	20.3	18.1	5.1
O=C(C[C@@H]1CC[C@H](NC(=O)C2CC2)[C@H](CO)O1)NC1CCC1
→ i	0.0	-0.1	-6.4	-1.8
Cc1ccsc1C(=O)N1CCC1(C)C(=O)NS(=O)(=O)c1ccccc1 (stereo not given)
→ i	0.2	5.8	12.7	-1.8
CNC[C@@H]1Oc2c(NC(=O)NC3CCCCC3)cccc2C(=O)N([C@@H](C)CO)C[C@@H]1C
→ i	-16.0	4.7	3.9	-2.5
CCNC(=O)C[C@@H]1CC[C@H](NS(=O)(=O)c2ccc(C)cc2)[C@@H](CO)O1
→ i	1.4	1.9	6.6	-0.9
C[C@H]1CN([C@@H](C)CO)C(=O)Cc2cc(NS(=O)(=O)c3ccc(Cl)cc3)ccc2O[C@@H]1CN(C)S(C)(=O)=O
→ i	7.0	-2.7	1.1	2.2
CCOc1cc(N2CCOCC2)c(OCC)cc1NC(=O)CSc1ccccc1C(=O)O
→ i	-18.0	4.2	8.7	1.7
COc1ccc(S(=O)(=O)N[C@@H]2CC[C@@H](CCNC(=O)c3ccccc3F)O[C@H]2CO)cc1
→ i	-0.1	1.4	-1.6	-1.7
CC12C=CC(=O)C=C1CCC1C2CCC2(C)C(C(=O)CO)CCC12 (stereo not given)
→ i	1.7	-13.4	-23.6	-0.5
CC(=O)N[C@@H]1CC[C@H](CCNC(=O)Nc2ccc(C(F)(F)F)cc2)O[C@@H]1CO
→ i	5.2	-61.6	-71.5	-23.9
Cc1ccc(S(=O)(=O)N2CC[C@@H]3[C@H]2c2cc(-c4ccc(C#N)cc4)ccc2N(C)[C@H]3CO)cc1
→ i	-0.8	0.6	-2.5	-2.7
O=S(=O)(c1ccc(SCc2c(F)cccc2Cl)nc1)N1CCCC1
→ i	-6.2	-10.7	-28.5	0.0
CCOC(=O)C1=C[C@@H](C(C)(C)C)N(S(=O)(=O)c2ccc(C)cc2)[C@H]1c1ccc(Cl)c(Cl)c1
→ .	-0.9	8.7	11.0	-3.9
C[C@H](O)[C@@H]1C(=O)N2CCc3c([nH]c4ccccc34)[C@@H]2C[C@@H]1N(C)C(=O)c1ccco1
→ i	-6.9	-1.2	-1.8	6.4
Cc1ccc(C(O)c2ncc(-c3ccc4ccccc4c3)[nH]2)c(C)c1 (stereo not given)
→ i	0.3	-61.3	-77.9	-17.0
CCCNC(=O)N(C)C[C@H]1Oc2ncc(C#CCC3CCCC3)cc2C(=O)N([C@@H](C)CO)C[C@@H]1C
→ i	0.3	10.1	-1.4	7.0
C[C@@H](NC(=O)[C@H]1N[C@H]2c3ccc(-c4cccnc4)c(=O)n3C[C@H]2[C@@H]1CO)c1ccccc1
→ i	0.8	-1.5	-0.3	-1.2
CCC(=O)N1[C@H](CO)[C@@H](c2ccc(-c3cccc(F)c3)cc2)[C@@H]1CN(C)C(C)=O
→ i	0.0	1.9	-2.1	-0.1
COc1ccc(NC(=O)Nc2cccc3c2O[C@@H](CN(C)S(=O)(=O)c2ccc(Cl)cc2)[C@@H](C)CN([C@@H](C)CO)C3=O)cc1
→ i	-2.7	-4.4	-11.9	-1.0

# Limited to Ecoli rRNA inh OD600, for some of the entries so far:
compound | Ecoli rRNA inh OD600
CC12C=CC(=O)C=C1CCC1C2CCC2(C)C(C(=O)CO)CCC12 (stereo not given) | -23.6
CCCNC(=O)N(C)C[C@H]1Oc2ncc(C#CCC3CCCC3)cc2C(=O)N([C@@H](C)CO)C[C@@H]1C | -1.4
CO[C@H]1CN(C)C(=O)c2cc(NS(C)(=O)=O)ccc2OC[C@@H](C)N(C(=O)C2CCC2)C[C@H]1C | 4.4

# Other compounds.
# Results follow in this order: FGF22 binding	MLL AF4-AF9 inh	Ecoli rRNA inh	Ecoli rRNA inh OD600	Ecoli rRNA inh RFP
Cc1ccc(S(=O)(=O)NC(=O)C2(C)CCN2C(=O)Cc2ccc(-c3ccccc3)cc2)nc1 (stereo not given)
→ i	-1.4	-4.5	6.5	-1.1
COC(=O)C[C@@H]1CC[C@@H]2[C@H](COc3ccc(NC(=O)Nc4cccc(Cl)c4)cc3C(=O)N2C)O1
→ i	0.8	-2.9	-30.9	10.8
CCC(=O)N1CCCCN2[C@@H](CO)[C@H](c3ccc(C#Cc4cccnc4)cc3)[C@@H]2C1
→ i	-4.3	-2.6	12.5	-1.2
Cc1cc(Cl)ccc1OCC(=O)OCC(=O)Nc1ccc(Cl)cn1
→ i	-4.2	-2.6	3.0	-1.0
O=C(C[C@@H]1CC[C@@H]2[C@H](COC[C@H](O)CN2C(=O)Nc2ccc(C(F)(F)F)cc2)O1)NCC1CC1
→ i	-0.2	-62.0	-82.7	-24.7
O=C(C[C@@H]1CC[C@@H](NC(=O)C2CCOCC2)[C@H](CO)O1)NCC1CCCCC1
→ i	1.3	-8.2	-10.8	-5.7
COc1ccc(S(=O)(=O)N(C)C[C@H]2Oc3ccc(NS(=O)(=O)c4ccc(F)cc4)cc3C(=O)N([C@@H](C)CO)C[C@@H]2C)cc1
→ i	-1.7	-2.2	-3.7	1.9
CCOC(=O)[C@]12CCCC=C1N(Cc1ccc3c(c1)OCO3)C(=O)[C@H](CC(=O)NCc1ccc(C)o1)C2
→ i	6.1	1.4	5.0	6.7
C[C@H]1CN([C@@H](C)CO)C(=O)c2cc(-c3ccncc3)cnc2O[C@@H]1CN(C)Cc1ccc(Oc2ccccc2)cc1
→ i	6.8	-11.1	-55.6	19.2
C[C@@H]1CN([C@@H](C)CO)C(=O)Cc2cc(NC(=O)C3CC3)ccc2O[C@H]1CN(C)Cc1ccc(-c2ccccc2)cc1
→ i	8.2	-3.2	-29.5	16.1
COc1ccc(NC(=O)N(C)C[C@@H]2Oc3c(NS(=O)(=O)c4ccc(Cl)cc4)cccc3C(=O)N([C@H](C)CO)C[C@@H]2C)cc1
→ i	3.5	-11.4	-15.3	1.6
C[C@H](CO)N1C[C@H](C)[C@H](CN(C)Cc2ccccc2)OCc2cnnn2CCCC1=O
→ i	-0.9	2.6	3.4	-4.9
CO[C@@H]1CN(C)C(=O)c2ccc(NC(C)=O)cc2OC[C@H](C)N(C(=O)C2CCCCC2)C[C@@H]1C
→ i	1.0	-0.1	-1.7	-0.5
C[C@@H]1CCCCO[C@H](CN(C)S(C)(=O)=O)[C@@H](C)CN([C@@H](C)CO)C(=O)c2cc(N(C)C)ccc2O1
→ i	-3.7	2.1	5.2	1.1
Cc1noc(C)c1NC(=O)Nc1ccc2c(c1)C(=O)N([C@H](C)CO)C[C@@H](C)[C@H](CN(C)Cc1ccc(Cl)c(Cl)c1)O2
→ i	-9.4	-5.2	-17.8	-0.9
Cc1nc(N)ncc1CCC1OCCO1
→ i	1.1	3.0	14.1	-4.8
C[C@H]1CN([C@@H](C)CO)C(=O)c2cc(N(C)C)ccc2O[C@@H]1CN(C)C(=O)Nc1ccc2c(c1)OCO2
→ i	0.3	-0.6	-2.6	-3.5
Nc1c(C(=O)Nc2ccccc2)sc2nc(N3CCOCC3)c3c(c12)CCCC3
→ i	-1.2	-9.6	-10.9	12.8
COc1ccc(CNC(=O)C[C@@H]2C=C[C@@H](NC(=O)Nc3ccc4c(c3)OCO4)[C@H](CO)O2)cc1
→ i	-0.8	-3.1	2.8	0.3
Clc1cccc(CNc2ccn3nc(-c4cccc(OCc5ccccc5)c4)cc3n2)c1
→ i	-7.3	9.5	12.3	26.8
O=C(c1cccc(F)c1)N1CC(=O)N2[C@H](CO)[C@@H](c3ccc(/C=C/c4ccccc4)cc3)[C@H]2C1
→ i	10.1	-38.9	-65.2	10.6
CCC(=O)N1C[C@H](C)[C@@H](OC)CN(C)C(=O)c2cc(NC(=O)COC)ccc2OC[C@@H]1C
→ i	-2.3	2.7	2.2	-0.6
CC(C)NC(=O)N[C@@H]1C=C[C@@H](CC(=O)NCCCN(C)C)O[C@H]1CO
→ i	-1.5	0.0	2.0	-0.3
C[C@H](CO)N1C[C@H](C)[C@@H](CN(C)C(=O)CC2CC2)Oc2cc(C#CCN(C)C)ccc2S1(=O)=O
→ i	0.4	4.1	0.6	-1.2
COc1ccc2nc3n(c(=O)c2c1)-c1ncccc1C(=O)NC3CC(C)C (stereo not given)
→ i	-1.1	1.6	-1.9	0.2
C[C@@H]1CN([C@@H](C)CO)C(=O)c2cc(Br)cnc2O[C@@H]1CN(C)Cc1ccccc1
→ i	-0.8	4.5	16.0	-0.9
C[C@@H]1CN([C@@H](C)CO)C(=O)c2cc(-c3cccnc3)cnc2O[C@@H]1CN(C)S(C)(=O)=O
→ i	-3.9	-1.9	4.7	-0.3
C[C@@H]1CN([C@@H](C)CO)C(=O)c2cc(C#CCN(C)C)cnc2O[C@H]1CN(C)Cc1cccc(F)c1
→ i	5.3	5.1	5.5	-2.5
CCOc1ccc(NC(=O)CN(C)C(=O)c2n[nH]c(=O)c3ccccc23)cc1OCC
→ i	-12.0	3.5	8.6	-0.1
CC(=O)N1CC2(C1)[C@H](c1ccc(-c3ccc(C#N)cc3)cc1)[C@H](CO)N2C(=O)C1CC1
→ i	3.2	-4.1	1.0	0.1

# Results follow in this order: FGF22 binding	MLL AF4-AF9 inh	Ecoli rRNA inh	Ecoli rRNA inh OD600	Ecoli rRNA inh RFP
CC(C)NC(=O)Nc1ccc2c(c1)C(=O)N([C@@H](C)CO)C[C@H](C)[C@@H](CN(C)CC1CCCCC1)OCCCC[C@H](C)O2
→ i	-3.6	1.9	3.3	-0.2
COc1ccc(S(=O)(=O)N(C)C[C@H]2OCCCC[C@H](C)Oc3ccc(NC(=O)CCC(F)(F)F)cc3C(=O)N([C@H](C)CO)C[C@@H]2C)cc1
→ i	-2.7	-1.3	-16.4	-2.1
COc1ccccc1CNC(=O)COC(=O)CSc1ccc(C)c(C)c1
→ i	-1.7	-6.0	-1.1	2.2
C[C@@H]1CN([C@@H](C)CO)C(=O)c2cccc(NC(=O)C3CCCCC3)c2O[C@H]1CN(C)S(C)(=O)=O
→ i	-0.2	1.5	6.1	-3.4
CCC(=O)N1[C@H](CO)[C@@H](c2ccccc2)C12CN(C(=O)Cc1ccccc1)C2
→ i	-3.5	-1.0	0.0	0.6
C[C@H]1CN([C@@H](C)CO)C(=O)c2cccc(NS(=O)(=O)c3cn(C)cn3)c2O[C@@H]1CN(C)C(=O)Nc1ccc(C(F)(F)F)cc1
→ i	-4.3	0.0	0.6	-4.8
COCC(=O)N(C)C[C@@H]1Oc2cc(-c3cncnc3)ccc2S(=O)(=O)N([C@@H](C)CO)C[C@@H]1C
→ i	-4.3	7.8	10.8	0.9
CCCC#Cc1ccc2c(c1)O[C@@H](CN(C)Cc1ccncc1)[C@@H](C)CN([C@@H](C)CO)S2(=O)=O
→ i	9.1	-35.1	-66.5	9.2
CCCS(=O)(=O)NC(=O)C1(C)CCCN(C(=O)c2ccccc2C(F)(F)F)C1 (stereo not given)
→ i	-2.6	11.6	12.2	9.6
Cc1cc2nc(-c3cccc(Cl)c3)c(Cc3cccc(Cl)c3)n2c(C)c1Br
→ i	-0.4	-17.7	-2.8	11.1
CCc1nc2ccc(C(=O)NCCOc3ccc(OC)cc3)cn2c1N(C)C(=O)C1CCCCC1
→ i	-0.4	-31.1	-68.5	5.7
